# Screens as filed in PubChem.
# ALDH1A1 inh: inhibitors of human aldehyde dehydrogenase 1A1; Purified ALDH1A1, NADH fluorescence, propionaldehyde substrate; Potency, µM (series often up to 75.3 µM), without a hit: at the highest dose activity, negative = inhibition, hits mostly inhibitors; P00352; hit rate 7.3% among 220,000; active = well fitted inhibition curve with a large enough effect, not every such curve was filed as active; inconclusive = small, poorly fitted or top-dose-only effect, or another doubt; inactive = no such curve, though single readings can be large or run the other way;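 note: plate controls were no enzyme wells and a reference inhibitor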
# Target sequence (P00352 whole entry, looked up): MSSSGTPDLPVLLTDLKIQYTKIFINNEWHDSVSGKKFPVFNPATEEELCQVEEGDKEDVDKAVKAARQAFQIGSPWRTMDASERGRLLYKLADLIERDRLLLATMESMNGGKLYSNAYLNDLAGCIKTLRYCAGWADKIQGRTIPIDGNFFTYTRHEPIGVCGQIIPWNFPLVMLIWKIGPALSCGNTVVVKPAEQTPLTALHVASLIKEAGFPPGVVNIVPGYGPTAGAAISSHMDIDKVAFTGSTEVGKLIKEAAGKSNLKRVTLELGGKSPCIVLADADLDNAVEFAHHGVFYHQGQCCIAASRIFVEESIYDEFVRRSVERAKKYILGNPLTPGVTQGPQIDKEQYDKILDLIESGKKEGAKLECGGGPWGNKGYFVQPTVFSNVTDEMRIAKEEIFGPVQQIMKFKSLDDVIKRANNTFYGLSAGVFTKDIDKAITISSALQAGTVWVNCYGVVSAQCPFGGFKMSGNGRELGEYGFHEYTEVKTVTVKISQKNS
# SMN2 splice enh: SMN2 splice variant enhancement | HEK293 SMN2-luciferase splicing reporter, luminescence, 30-36 h | hit rate 2.8% among 210,000 | AID 1458 | Potency, µM (highest dose often 46.1 µM), for inactives: at the highest dose activity change, positive = activation, actives largely listed as activators; note: % of control where 0% means no effect; nearly all actives have a fitted effect of over 55% in size
#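 HEK293 cells carry an SMN2 […]–luciferase reporter in which exon 7 inclusion puts luciferase in frame. Cells were plated 10-12 h before compound addition, then incubated 30-36 h at 37C. ONE-Glo luminescence was read; sodium butyrate at 4.5 mM final served as control.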
# aGlu spleen mod: lysosomal alpha-glucosidase (human) modulation | P10253 | human spleen homogenate, 4-MU-alpha-glucoside fluorescence | Potency, µM (highest dose often 79.9 µM), for the others: at the top dose activity change, negative = inhibition, most hits filed as inhibitors | hit rate 0.006% among 240,000 | AID 2112;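 note: 0% = enzyme with vehicle and -100% = no enzyme basal signal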
#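 AC50 values come from Hill-equation fits of concentration-response data, normalized to no-enzyme and full-activity controls. Enzyme source: 1 ug human spleen homogenate; 1 mM fluorogenic 4-MU glucoside, pH 5.0 citrate buffer, 37 C, 40 min.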
# GoLoco inh red: blocks human Gai1 binding to RGS12 GoLoco peptide, red readout. AID 880. Gai1:RGS12 GoLoco peptide FP, rhodamine, 10 min. Potency, µM (top dose mostly 61.6 µM), inactives show top-dose activity, negative = inhibition, hits mostly inhibitors. hit rate 0.44% among 230,000; active = well fitted inhibition curve with a large enough effect, not every such curve was filed as active; inactive = no such curve, though single readings can be large or run the other way; note: % is set by controls: 0 for no effect and ±100 for the full control effect; nearly all actives have a fitted effect of over 30% in size; many of its hits are not listed in these tables
# Target sequence (P63096 whole entry, looked up): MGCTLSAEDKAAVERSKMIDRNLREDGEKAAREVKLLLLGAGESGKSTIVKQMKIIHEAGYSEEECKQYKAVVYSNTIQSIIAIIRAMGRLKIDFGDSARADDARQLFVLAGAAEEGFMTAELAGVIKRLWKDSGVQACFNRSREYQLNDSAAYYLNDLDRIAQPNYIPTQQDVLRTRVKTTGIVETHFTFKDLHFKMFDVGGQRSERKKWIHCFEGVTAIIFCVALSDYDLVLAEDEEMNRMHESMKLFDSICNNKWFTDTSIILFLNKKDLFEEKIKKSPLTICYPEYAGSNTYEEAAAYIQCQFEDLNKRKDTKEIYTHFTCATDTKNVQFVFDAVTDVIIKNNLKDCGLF
# GAA inhib: blocks human lysosomal alpha-glucosidase; P10253; Potency, µM (top dose mostly 76.9 µM), for inactives: at the highest dose activity change, negative = inhibition, hits mostly inhibitors; AID 1466; hit rate 0.005% among 200,000; purified human GAA, 4-MU-alpha-glucoside fluorescence;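 note: plate controls were uninhibited enzyme wells for no effect and no-enzyme background for full effect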
#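 Enzyme (4 nM final) mixed with compound (up to 77 uM), then 4-MU-alpha-D-pyranoside (400 uM final) added; 20 min at room temperature, pH 5.0. Reaction stopped at pH 10, fluorescence read, AC50 derived by Hill fit.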
# aGal spleen mod: inhibitors or activators of human alpha-galactosidase in spleen homogenate. human spleen homogenate, 4MU-alpha-Gal fluorescence, 40 min. Potency, µM (doses to about 80 µM), inactives show top-dose activity change, negative = inhibition, hits mostly inhibitors. hit rate 0.008% among 240,000. AID 2107;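 note: 0% = enzyme with vehicle and -100% = no enzyme basal signal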
#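 Inhibition or activation of alpha-galactosidase in human spleen homogenate is scored by 4-MU fluorescence after 40 min at 37C, pH 5.0, with 1 mM substrate. AC50s come from concentration-response fitted to the Hill equation.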
# GAA glycogen: inhibitors or activators of human alpha-glucosidase glycogen cleavage. P10253. recombinant GAA, glycogen substrate, Amplex Red glucose oxidase fluorescence. hit rate 0.38% among 300,000. AID 2100. Potency, µM (top dose mostly 76.4 µM), inactives show at the highest dose activity change, negative = inhibition, actives largely listed as inhibitors;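 note: 0% = full enzyme reaction and -100% = no-enzyme basal signal; the screen sought inhibitors and activators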
#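 Natural-substrate format: glycogen cleavage by 4 nM human enzyme, glucose read by Amplex Red coupling (Ex 573, Em 610 nm). Normalized to enzyme and no-enzyme controls.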
# Active calls of the source: *; ? = inconclusive; . = no result given; & = joins results of further samples; [ ] = remark or other dose. Unless noted, calls come from the whole dose curve; as a rule, active = well fitted curve in the direction sought with a large enough effect; inconclusive = small, poorly fitted or top-dose-only effect, or another doubt; inactive = no such curve, though single readings can be large; an effect the other way counts as inactive or inconclusive. Potency is the fitted concentration of half-maximal effect. This is a subset (hit frequency here may not be typical).
SMILES,ALDH1A1 inh,SMN2 splice enh,aGlu spleen mod,GoLoco inh red,GAA inhib,aGal spleen mod,GAA glycogen
O=C(CSc1nccc(=O)[nH]1)N1N=C2/C(=C/c3ccco3)CCCC2C1c1ccco1 (configuration not stated),14µM*,-7%,1%,14%,-2%,10%,-9%
COc1ccc(Cl)cc1NC(=O)C(C)N(C)Cc1ccc(C(F)(F)F)cc1 (configuration not stated),-5%,.,-1%,.,-3%,3%,1%
Cc1ccc(-c2cc(C(F)(F)F)n3ncc(C(=O)NCc4ccco4)c3n2)cc1,2%,-11%,2%,5%,-1%,8%,1%
COC(=O)C1(CC(C)C)C=C2C(=C(C)C(=O)C2C)CN1 (configuration not stated),?,3%,4%,-1%,.,3%,.
Cn1c(-c2ccc(F)cc2)cnc1NCc1ccccc1,?,27%,-11%,0%,-1%,11%,?
Cc1ccc(SCCCCN2CCNCC2)cc1,?,15%,-1%,-2%,8%,1%,-9%
CC(=O)c1ccc2noc(-c3ccc(F)cc3)c2c1,?,-58%[inhibitor],-3%,11%,0%,-19%,-14%
COc1cccc(COCC(O)Cn2cnc3cc(C)c(C)cc32)c1 (configuration not stated),-8%,-3%,1%,1%,-1%,1%,0%
COc1cc(S(=O)(=O)Nc2ccc(C)cc2)ccc1N=Cc1c(C)c(C#N)c(=O)n(C)c1O,-2%,-22%,-8%,99%[activator],-7%,3%,2%
CC(C)C[C@H](N)c1nnc(SCc2ccc(Cl)cc2)o1,.,.,3%,1%,.,10%,19%
CC(C)(C)c1ccc(CSc2nnc(-c3ccccc3NC(=O)c3ccccc3)o2)cc1,?,-23%,12%,-17%,-2%,10%,3%
O=[N+]([O-])c1ccccc1S(=O)(=O)N1CCN(Cc2ccsc2)CC1,?,4%,4%,2%,4%,-6%,22%

# 3 structures out of the list, sorted by molar mass, ascending:
SMILES,ALDH1A1 inh,SMN2 splice enh,aGlu spleen mod,GoLoco inh red,GAA inhib,aGal spleen mod,GAA glycogen
CC(=O)c1ccc2noc(-c3ccc(F)cc3)c2c1,?,-58%[inhibitor],-3%,11%,0%,-19%,-14%
Cc1ccc(SCCCCN2CCNCC2)cc1,?,15%,-1%,-2%,8%,1%,-9%
COc1ccc(Cl)cc1NC(=O)C(C)N(C)Cc1ccc(C(F)(F)F)cc1 (configuration not stated),-5%,.,-1%,.,-3%,3%,1%

# (cont.)
SMILES,ALDH1A1 inh,SMN2 splice enh,aGlu spleen mod,GoLoco inh red,GAA inhib,aGal spleen mod,GAA glycogen
CC1CCN(S(=O)(=O)c2ccc(NC(=O)CN3CCCC(C)C3)cc2)CC1 (configuration not stated),0%,-16%,-7%,-2%,-8%,-3%,-1%
COc1ccc(NC(=O)C2CC(=O)n3cnnc3S2)cc1 (configuration not stated),0.71µM*,-15%,-1%,-9%,1%,3%,0%
CCOC(=O)C1CCN(C(=O)c2ccccc2NS(=O)(=O)c2ccc(F)cc2)CC1,11%,-1%[1.84 µM],-1%,-8%,-3%,-2%,-1%
CCn1c2ccccc2c2cc(NC(=O)CNCC3CCCO3)ccc21 (configuration not stated),32µM*,-16%,3%,5%,-2%,2%,-5%
CC1c2ccccc2CN1CC1=NCCN1 (configuration not stated),-11%,-6%,1%,25µM*,.,4%,.
CCOC(=O)CSc1ccc2nnc(-c3ccncc3)n2n1,?,17%,-5%,8%,1%,-1%,2%
CCOC(=O)C1=C(C)NC(C)=C(C(=O)OCC)C1c1ccc(C)o1,7%,.,6%,-9%,-6%,2%,-4%
O=C(Nc1cc(N2CCOCC2)ncn1)NC1(C(F)(F)F)Oc2ccccc2O1,?,?,-4%,-10%,2%,-2%,?
COc1ccc(-n2ncc3c(NCCCn4ccnc4)ncnc32)cc1,0%,-24%,-6%,5%,-1%,-5%,-4%
NS(=O)(=O)c1ccc(N2N=C(c3ccccc3)CC2c2cccc(F)c2)cc1 (configuration not stated),?,3%,-3%,0%,?,-5%,6%
Cc1cccc(N2C(=O)CC(Sc3ncn[nH]3)C2=O)c1 (configuration not stated),14µM*,5%,-6%,-13%,2%,-5%,-16%
COc1cccc(CN2CCC(C(=O)N3CCC(C)CC3)CC2)c1,2%,25%,2%,-3%,6%,10%,4%
COc1cc(-c2nc(=S)[nH][nH]2)cc(OC)c1OC,?,.,-1%,10%,-5%,7%,?
CN(C)CCCCOc1ccccc1F,-11%,8%,-1%,-11%,-3%,-6%,23%
c1ccc(C2Nc3ccccc3-c3nc4ccccc4n32)nc1 (configuration not stated),?,-8%,13%,0%,?,?,-7%
O=C(CCN1C(=O)c2ccccc2C1=O)NCCC1=CCCCC1,?,14%,-5%,11%,?,-6%,5%
O=C(O)Cc1sc(Nc2ccccc2)nc1-c1ccc(Cl)cc1,?,11%,-5%,-35%,12%,-2%,?
COc1ccc(OCCOCCN2CCc3ccccc3C2)cc1,4%,24%,0%,-4%,-8%,-7%,5%
Cc1ccc([N+](=O)[O-])c(OCCCN2CCCCCC2)c1,?,-2%,3%,3%,4%,9%,0%
CCOC(=O)C1CCN(CC(=O)Nc2cc(S(=O)(=O)N3CCOCC3)ccc2C)CC1,?,-16%,-2%,5%,-20%,5%,1%
Cc1ccccc1OCCNCC(C)O (configuration not stated),?,.,-2%,-7%,-2%,1%,5%
CSc1nsc(/C=C/Nc2ccc(C)c(C)c2)c1C#N,14µM*,5%,1%,104%[activator],-9%,14%,-5%
N#C/C(=C\c1ccc(C#N)cc1)C(=O)N1CCCC1,7.9µM*,11%,0%,4%,2%,4%,7%
Cn1c(N/N=C2\CCCc3ccccc32)nc2c1c(=O)n(Cc1ccc(F)cc1)c(=O)n2C,?,-32%[inhibitor],15%,6%,2%,22%,1%
CN(CCO)CCOCCOc1cccc2ccccc12,14µM*,-12%,-2%,-1%,-7%,-6%,2%
COc1ccc(C(=O)N/N=C/c2ccc3cccc(O)c3n2)cc1,?,.,0%,29%,0%,-2%,-10%
CCN1C(=O)/C(=C/c2ccc(C)o2)N(C)C1=S,1.6µM*,28%,-11%,-5%,-11%,-13%,4%
O=S(=O)(NCCC1=CCCCC1)c1cccc2nsnc12,?,-17%,-4%,-7%,-1%[15.4 µM],-7%,3%
CCOC(=O)CSc1nnc(-c2ccco2)n1-c1ccc(C)cc1,-11%,30%,5%,-1%,5%,0%,2%
CC(NCC1COc2ccccc2O1)C(=O)NCc1ccccc1 (configuration not stated),?,17%,7%,-2%,-6%,6%,9%
O=c1c2ccccc2[nH]c(=S)n1CCN1CCCC1,?,-6%,8%,4%,9%,13%,2%
COc1cc(OC)c(OC)cc1CN1CCN(S(=O)(=O)c2ccc(NC(C)=O)cc2)CC1,?,.,0%,-1%,-3%,2%,8%
COC(=O)c1ccc2c(=O)n(CCCCCC(=O)O)c(=O)[nH]c2c1,?,-11%,-6%,9%,?,-1%,2%
Cc1cc(C)n(CC(O)COc2ccccc2C)n1 (configuration not stated),3%,-5%,4%,9%,6%,5%,-3%
O=C(NC1CCCCC1)C1CCN(c2nccs2)CC1,-3%,-1%,1%,8%,1%,6%,0%
CN(C)c1cc(N/N=C/c2ccc(Cl)cc2)nc(N(C)C)n1,-4%,-20%,-3%,3%,-11%,0%,-12%
CC(C(=O)Nc1cc([N+](=O)[O-])ccc1Cl)N1CCN(c2ccc(O)cc2)CC1 (configuration not stated),7.1µM*,-14%,1%,-16%,-1%,-4%,?
Cc1ccc(-c2[nH]c3ccccc3c2C(C[N+](=O)[O-])c2ccco2)cc1 (configuration not stated),28µM*,-5%,-10%,25%,?,-9%,-2%
COC(=O)c1cn(Cc2cccnc2)c(=O)c2ccccc12,-8%,27%,5%,12%,-4%,8%,3%
CCN(CC)S(=O)(=O)c1ccc(N(C)Cc2cccc(OC)c2OC)nc1,-13%,-65%[inhibitor],-2%,2%,-1%,-5%,20%
O=C(NNc1nc2ccccc2s1)c1ccc(F)cc1,-12%,-9%,4%,-7%,-11%,-3%,7%
COc1ccc(-c2cc(-c3nnc(-c4ccncc4)o3)c3ccccc3n2)cc1,?,-6%[1.84 µM],6%,-3%,0%,2%,10%
O=C1NCCN(Cc2ccc(Cl)c(F)c2)C1CC(=O)N1CCc2ccccc2C1 (configuration not stated),?,.,-7%,-5%,9%,2%,-3%
CNS(=O)(=O)c1ccc2nc(NC(=O)c3ccc(N4C(=O)CCC4=O)cc3)sc2c1,?,22%,-16%,-14%,?,5%,6%
O=C(O)/C=C/C(=O)Nc1ccc(-c2ccccc2)cc1,3.2µM*,21%,1%&-2%,2%&7%,-7%&0%,-1%&2%,2%&9%
CNC(=S)N1N=C2c3ccccc3CCC2C1c1ccccc1Cl (configuration not stated),.,.,6%,3%,.,-1%,-12%
C=CCc1ccccc1OCC(O)CN1CCN(c2ccccc2OC)CC1 (configuration not stated),?,-18%,-24%,-6%,-14%,-12%,0%
O=C(Cc1cccs1)NC(c1ccccc1)c1ccccc1,-12%,.,-11%,-2%,-8%,3%,-9%
c1coc(-c2nnc3n2C2(CCCC2)Cc2ccccc2-3)c1,12%,-14%,-7%,8%,2%[15.4 µM],3%,6%
COC(=O)C1CCN(c2nc3ccccc3nc2C(C#N)C(=O)NCCc2ccccc2)CC1 (configuration not stated),-4%,7%,7%,-5%,-8%[15.4 µM],-12%,8%
CN1CCN(CC(O)COC(c2ccccc2)c2ccccc2)CC1 (configuration not stated),1%,-2%,-1%,5%,2%,-4%,-1%
Cc1cc(C2C(=O)CC(=O)CC2c2ccccc2)on1 (configuration not stated),10µM*,1%,-2%,16%,-10%,0%,-11%
CCCCNC(=O)N1CCN(Cc2ccc(F)cc2)CC1,0%,-31%,-2%,13%,?,7%,9%
CCOC(=O)c1ccc2c(c1)nc(-c1ccc(F)cc1)c1nccn12,?,7%,2%,-7%,8%,-2%,-1%
OCCOCCNc1ncnc2c1cnn2-c1ccccc1,3%,-18%,-6%,6%,?,-8%,1%
COc1ccc(/C=N/Nc2ncc(C(F)(F)F)cc2Cl)c(OC)c1OC,?,-8%,-2%,1%,-2%,-4%,5%
S=C1NC(c2ccccc2)N2C(=S)NC(c3ccccc3)N12 (configuration not stated),13µM*,15%,6%,7%,-3%,6%,-5%
CCOC(=O)N1CCC(NC(=O)c2ccc(CNS(=O)(=O)c3ccc(F)cc3)cc2)CC1,13%,-23%,-4%,-4%,3%,-2%,5%
CC(C)(C)c1ccccc1OCCCCCNCCO,?,18%,-2%,-3%,-1%,3%,-4%
CCc1cc(OCCN(C)C)ccc1Cl,?,-4%,1%,1%,8%,7%,11%
Cc1noc(C)c1C(=O)Nc1sc2c(c1C(N)=O)CCCCC2,7.9µM*,3%,-1%,-7%,-2%,-1%,-2%
Cc1ccc(C2C(C#N)=C(N)Oc3c2oc(CO)cc3=O)o1 (configuration not stated),?,7%,-14%,8%,-9%,-1%,2%
COCCNC(=S)N/N=C/c1ccc(OCc2ccc(C(=O)OC)cc2)cc1,13%,10%,-2%,5%,-11%,6%,14%
